MT1-MMP act inh – inhibitors of human MT1-MMP activation. 360,000 compounds, 0.061% hits. AID 651647. GFP/RFP ratio change, % at 20 µM. HT1080 RFP-PRO-GFP cells, GFP/RFP ratio fluorescence, overnight; percent of plate control window, DMSO zero. P50281;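 active = GFP/RFP ratio change of at least 30% with cell ATP level not reduced by more than half and red fluorescence within 50% of control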; note: strong numbers were not always called active
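Read-out: GFP/RFP fluorescence ratio; Test system: RFP-PRO-GFP reporter HT1080 cells; Compound dosing: single-point 20 µM compound, 1% DMSO; Times: overnight compound exposure at 37 °C.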
PABP polyA inh – blocks human PABP binding to poly(A) RNA. P11940. fluorescence polarization. inhibition, % at 35 µM. 290,000 compounds, 1% hits. AID 2014;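 active = 50% or more with normal probe brightness, or confirmed in later tests; about a fifth of its hits are not listed in these tables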;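 note: calls also rest on retests at 20 µM and on dose response follow-up; controls were probe without protein and protein plus probe with vehicle; some compounds called inactive have numbers as strong as hits; many hits fall short of the cut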
Target sequence (P11940 whole entry, looked up): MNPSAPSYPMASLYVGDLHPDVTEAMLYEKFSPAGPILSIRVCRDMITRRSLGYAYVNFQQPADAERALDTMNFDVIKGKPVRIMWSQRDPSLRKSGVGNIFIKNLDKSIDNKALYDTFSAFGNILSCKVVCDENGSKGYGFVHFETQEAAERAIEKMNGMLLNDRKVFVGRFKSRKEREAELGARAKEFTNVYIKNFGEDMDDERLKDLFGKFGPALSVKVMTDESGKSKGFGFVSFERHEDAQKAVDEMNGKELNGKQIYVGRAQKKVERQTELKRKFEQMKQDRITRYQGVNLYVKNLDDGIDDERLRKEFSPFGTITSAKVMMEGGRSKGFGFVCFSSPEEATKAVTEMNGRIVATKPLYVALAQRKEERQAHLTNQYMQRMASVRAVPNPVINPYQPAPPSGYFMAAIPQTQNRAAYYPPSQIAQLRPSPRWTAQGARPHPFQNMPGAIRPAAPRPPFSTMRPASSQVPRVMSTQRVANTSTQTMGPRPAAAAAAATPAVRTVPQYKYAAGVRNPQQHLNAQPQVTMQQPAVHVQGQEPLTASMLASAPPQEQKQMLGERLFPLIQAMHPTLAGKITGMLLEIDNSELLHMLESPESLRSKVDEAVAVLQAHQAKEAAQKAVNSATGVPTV
Yeast UUG start – alters start codon recognition fidelity in yeast. S. cerevisiae UUG-firefly luciferase reporter, luminescence/redox ratio. 350,000 compounds, 0.13% hits. activity score, % at 18.7 µM;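 active = replicate mean at a twofold rise or more, about +100% in these data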;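 note: firefly luciferase made from a UUG start codon reports start codon fidelity; reporter light over untreated wells divided by growth signal over untreated wells; some hits fall short of that in this replicate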
Rce1 inhib – inhibitors of yeast Ras-converting enzyme; Q03530; calls only; yeast membranes, quenched prenylated peptide cleavage fluorescence; 290,000 compounds, 0.27% hits; AID 2563;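 active = fall in fluorescence gain of 50% or more versus controls, with final raw signal at or below 3038400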;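 note: plate controls were neutral control wells for no effect and wells lacking membranes for full effect; tested at 10 µM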
HIV Env fusion – HIV envelope-mediated fusion inhibition | HeLa-JRFL Env/CEM21 cell fusion, luciferase | inhibition, % at 12.3 µM | 360,000 compounds, 1.1% hits | AID 651610;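 active = mean replicate inhibition score of at least 50 and every replicate individually at or above 50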;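 note: 0% = plate neutral controls and 100% = maraviroc near 300 nM; one replicate is shown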
CSC inhib – cancer stem cell inhibition. cancer stem cell-like cells viability, luminescence. inhibition, % at 7.5 µM. 300,000 compounds, 1.1% hits. AID 2717;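 active = mean at 75% or more and at least half the replicates too; tested in HMLE shEcad cells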;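 note: 0% = median of negative and 100% = median of positive control wells; the first replicate is given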
eIF4H inh – inhibitors of RNA binding by human eIF4H. Q15056. eIF4H fluorescence polarization binding assay. inhibition, % at 35 µM. 290,000 compounds, 0.94% hits. AID 2012;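 active = 50% or more with normal probe brightness, or confirmed in later tests; about a fifth of its hits are not listed in these tables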;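 note: calls also rest on retests at 20 µM and on dose response follow-up; 0% = protein and probe with vehicle and 100% = probe without protein; strong numbers were not always called active; many hits fall short of the cut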
MT1-MMP act inh RFP – second read-out of MT1-MMP act inh, no call of its own (marks repeat the call); RFP signal change, %; measured here: RFP expression control read;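 0 = vehicle wells; hits needed this value within 50% of zero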
* hit, by the source's call; i = inactive; . = no result given. These rows are one share of the data (hit frequency here may not be typical).

canonical_smiles | MT1-MMP act inh | MT1-MMP act inh RFP | PABP polyA inh | Yeast UUG start | Rce1 inhib | HIV Env fusion | CSC inhib | eIF4H inh
CCOc1ccc(C2C(C(=O)c3ccc(C)o3)=C(O)C(=O)N2c2cc(C)on2)cc1OC (stereo not drawn) | 3 | 4 | 3 | -9 | i | 4 | -4 | 29
COc1cccc(NC(=S)Nc2cccnc2)c1 | -1 | 3 | 25 | -23 | i | -3 | 2 | 4
COc1cccc(OC)c1C(=O)Nc1ccc(C(=O)NCc2ccccc2)cc1 | 1 | 2 | -12 | -9 | i | 2 | -5 | -3
CNC(=O)Nc1ccc2snnc2c1 | -2 | -1 | 7 | -10 | i | 0 | 9 | -4
O=C(NNC(=S)NCc1ccco1)C(c1ccccc1)c1ccccc1 | 1 | 3 | 1 | . | i | -2 | -9 | 10
CC1CCc2onc(C(=O)NCc3ccco3)c2C1 (stereo not drawn) | -12 | -7 | -9 | -19 | i | -6 | -14 | -13
CCOC(=O)C1CCN(C(=O)CCS(=O)(=O)Cc2ccccc2)CC1 | -1 | 3 | -2 | -10 | i | -11 | -4 | -5
COC(=O)c1cn(NC(=O)c2ccc3c(c2)OCO3)c(=O)c2ccccc12 | -3 | -1 | 3 | . | i | -74 | 1 | -5
COc1ccc(C)cc1Nc1c2c(nc3ccccc13)CCC2 | 1 | -12 | -14 | . | i | -125 | 64 | -4
CNC(=O)C1CC(=O)N/C(=N/N=C(\C)c2cccs2)S1 (stereo not drawn) | 1 | -4 | -1 | -14 | i | 2 | . | -8
Cc1ccc(OCC(O)CN2CCN(c3ccc(C)cc3)CC2)cc1 (stereo not drawn) | 2 | -3 | 7 | 9 | i | 2 | 4 | -2
Cc1ccccc1Nc1nn2c(=O)c3ccc(C(=O)N4CCCC(C)C4)cc3nc2s1 (stereo not drawn) | 1 | -3 | . | -30 | . | -3 | . | .

Further entries follow.
canonical_smiles | MT1-MMP act inh | MT1-MMP act inh RFP | PABP polyA inh | Yeast UUG start | Rce1 inhib | HIV Env fusion | CSC inhib | eIF4H inh
Cc1ccccc1S(=O)(=O)NC(=O)C1(C)CCN1C(=O)CC(c1ccccc1)c1ccccc1 (stereo not drawn) | 3 | 4 | . | -10 | . | -5 | . | .
CCOC(=O)c1ccc(NC(=O)CC2C(=O)N(c3ccccc3)C(=O)N2CCCOC)cc1 (stereo not drawn) | -3 | -3 | 4 | -1 | i | -6 | -2 | 6
O=C(O)CC(c1ccccc1)n1cccc1 (stereo not drawn) | -4 | -4 | 3 | -13 | i | -16 | -6 | -14
CN(C(=O)c1coc(=O)c2ccccc12)c1ccc(F)cc1 | 4 | 5 | 1 | -12 | i | . | -8 | -1
COc1ccc(C(=O)Nc2ccc3c(c2)OCCO3)cc1Br | -1 | -3 | 4 | -16 | i | -96 | . | 4
Cc1ccc(-n2nc3c(c2NC(=O)c2ccco2)CS(=O)(=O)C3)cc1C | -4 | 1 | 0 | -8 | i | -7 | -1 | -4
CS(=O)(=O)N1CCC(CO)(Cc2ccccc2C(F)(F)F)CC1 | -10 | -3 | -9 | . | i | 9 | 6 | -6
Cc1cccc(OCCC(=O)OC(C)C(=O)Nc2ccc(Cl)cn2)c1 (stereo not drawn) | 2 | 1 | . | 8 | i | -2 | -4 | .
Cc1ccc(NC(=O)CCN2C(=O)C3C4CCC(C4)C3C2=O)cc1Cl (stereo not drawn) | 6 | 5 | -10 | -18 | i | . | -6 | 1
COc1ccccc1Oc1ccc(Oc2ccccc2OC)cc1 | -2 | -5 | 17 | -4 | i | 8 | -5 | -5
O=C(C1CCC1)N1CCN(Cc2ccccc2)CC1 | 2 | -4 | 18 | -19 | i | . | 7 | -4
NC(=O)COC(=O)c1ccccc1Oc1ccccc1 | 0 | -1 | -13 | . | . | 5 | 4 | -6

(cont.)
canonical_smiles | MT1-MMP act inh | MT1-MMP act inh RFP | PABP polyA inh | Yeast UUG start | Rce1 inhib | HIV Env fusion | CSC inhib | eIF4H inh
Cc1cc(C)c(Cn2c(=O)n(CCCC(=O)NCc3ccco3)c(=O)c3ccccc32)c(C)c1 | 4 | 3 | . | -12 | i | . | -10 | .
Nc1nonc1-n1nnc(C(=O)N/N=C/c2cccs2)c1-c1ccc2c(c1)OCO2 | 1 | 2 | 0 | -14 | i | 3 | -3 | 0
Cn1c(O)c(N=Nc2nc(-c3ccccc3)cs2)c2ccccc21 | -9 | 2 | 2 | . | i | . | 4 | 49
Cc1ccc(-n2cc(CN3CCN(C(=O)c4ncn[nH]4)CC3)c(-c3ccc(F)cc3)n2)cc1 | -5 | -7 | -6 | -9 | i | 10 | 15 | 18
COc1ccc(/C=C2\CCCC3C2=NN(C(=O)CSc2ncn[nH]2)C3c2ccc(OC)cc2)cc1 (stereo not drawn) | -12 | -7 | -2 | -23 | i | -23 | 36 | 15
COc1ccc(NC(=O)C2CCC(=O)N2S(=O)(=O)c2ccc(C)cc2)c(OC)c1 (stereo not drawn) | 1 | 3 | -10 | 3 | i | -64 | 1 | -8
COc1ccc(CNC(=O)COC(=O)CCc2nc3ccccc3c(=O)[nH]2)cc1 | -5 | -6 | 2 | -12 | i | -15 | -8 | -2
Nc1cc(C(=O)N2CCCC2)cc(C(=O)N2CCCC2)c1 | 5 | 0 | 9 | -8 | i | . | . | -6
Cc1c(NC(=O)c2ccc(-c3ccc([N+](=O)[O-])cc3Cl)o2)c(=O)n(-c2ccccc2)n1C | 7 | 2 | -6 | . | i | -13 | -6 | 1
O=C(NCc1cccc(F)c1)C1CCC(=O)N(CC2CCCCC2)C1 (stereo not drawn) | 0 | 1 | -2 | -8 | i | 6 | -10 | 16
Cc1noc(C)c1NC(=O)Nc1cccc2c1O[C@H](CN(C)C(=O)NC(C)C)[C@@H](C)CN([C@H](C)CO)C2=O | -3 | 1 | . | -42 | . | -187 | . | .
O=C(CSc1nnc2n1CCCN2C(=S)Nc1ccc(Cl)cc1)c1ccccc1 | 9 | 0 | 1 | -24 | i | -24 | 20 | -3

Further entries.
canonical_smiles | MT1-MMP act inh | MT1-MMP act inh RFP | PABP polyA inh | Yeast UUG start | Rce1 inhib | HIV Env fusion | CSC inhib | eIF4H inh
CNC(=O)NC(=S)NC(=O)c1cccc(Cl)c1 | -6 | -1 | 6 | . | i | 13 | -11 | -1
Cc1cccc(NC(=O)CCNC(=O)c2ccc(Br)cc2)c1C | 2 | 5 | -9 | -12 | i | -20 | -8 | -10
COc1cc2c(C(=O)N3CCN(C4CCCCC4)CC3)cn(CC(C)C)c(=O)c2cc1OC | . | . | 4 | . | i | . | . | 6
O=C(Nc1ccc2c(c1)OCO2)c1cc(C2CCCCN2C(=O)OCCF)on1 (stereo not drawn) | -3 | 0 | . | 1 | . | 11 | . | .
O=C(CNC(=O)c1ccco1)NCC(=O)OC(C(=O)c1ccccc1)c1ccc(Cl)cc1 (stereo not drawn) | 0 | 5 | -2 | 5 | i | 6 | -7 | 0
Cc1n[nH]c(C)c1CCCCOc1ccccc1[N+](=O)[O-] | -5 | -23 | 10 | -17 | i | 5 | -3 | -5
Cc1cc(C)nc(SCCC(=O)N(C)C)n1 | -1 | 2 | -3 | -16 | i | -138 | -11 | 0
COc1ccc(/C=C2/SC(=S)N(NS(=O)(=O)c3ccc(C)cc3)C2=O)cc1 | 2 | 8 | 13 | -18 | i | 2 | . | 9
Nc1nsnc1C(=O)NCCO | -6 | -3 | 2 | -18 | i | -40 | -6 | -3
COc1ccc(C(=O)Cn2c(Br)nc3c2c(=O)n(C)c(=O)n3C)cc1OC | 10 | 0 | -4 | -15 | i | 2 | -5 | 3
O=C(O)C1C2C=CC(C2)C1C(=O)Nc1cccc(F)c1 (stereo not drawn) | 6 | 4 | 0 | 11 | i | -21 | -5 | -2
O=C(NCc1ccccc1)C(c1ccc(O)cc1)N(C(=O)Cn1nnc(-c2cccs2)n1)c1ccc2c(c1)OCCO2 (stereo not drawn) | -1 | -11 | -1 | -18 | i | . | 0 | 3

Remaining list, next part.
compound,MT1-MMP act inh,MT1-MMP act inh RFP,PABP polyA inh,Yeast UUG start,Rce1 inhib,HIV Env fusion,CSC inhib,eIF4H inh
CCOC(=O)/C=C(\C)Sc1cc(=O)oc2ccccc12,-8,-12,19,2,i,23,53,-10
O=C(COC(=O)C1CCN(S(=O)(=O)c2ccccc2C(F)(F)F)CC1)NCc1ccc(F)cc1,8,7,0,-15,i,.,0,3
O=C(COc1ccccc1)NCC(c1ccco1)N1CCN(c2ccccc2)CC1 (stereo not drawn),8,-6,.,-3,i,.,1,.
COc1ccc(N2CCN(C(=O)c3cc(-c4ccc(F)cc4)[nH]c3C)CC2)cc1,-3,-6,9,2,i,22,3,1
O=C(NC(=S)Nc1ccccc1Br)c1ccc2c(c1)OCO2,2,-5,5,-2,i,-34,-2,-4
Nc1ccccc1-c1nc2ccccc2[nH]1,3,1,3,-18,i,-23,34,3
CC(C)C[C@H](NC(=O)c1[nH]cnc1C(=O)N[C@@H](C)C(=O)OC(C)(C)C)C(=O)OCc1ccccc1,-6,-4,0,4,i,21,11,-9
CCC1(c2ccccc2)NC(=O)N(CC(=O)NNC(=O)c2ccoc2C)C1=O (stereo not drawn),3,-1,.,.,i,-26,-6,.
Cc1ccc(Cl)cc1N1CCN(C(=O)C2CCN(S(=O)(=O)c3c(C)nn(C)c3C)CC2)CC1,9,-3,-7,-2,i,.,-22,3
N#Cc1cccnc1N1CCN(C(=O)c2cccc3c2C(=O)c2ccc(Cl)cc2S3(=O)=O)CC1,3,4,.,-19,.,16,23,.
CCOc1cc(C(=S)N2CCOCC2)ccc1OS(=O)(=O)c1ccccc1,7,-6,2,-9,i,19,.,-2
CCNC(=S)NCCN1CCCCC1,-2,2,4,-6,i,.,.,0

Reprinted from the part before: five entries, followed by the next part.
compound,MT1-MMP act inh,MT1-MMP act inh RFP,PABP polyA inh,Yeast UUG start,Rce1 inhib,HIV Env fusion,CSC inhib,eIF4H inh
CCC1(c2ccccc2)NC(=O)N(CC(=O)NNC(=O)c2ccoc2C)C1=O (stereo not drawn),3,-1,.,.,i,-26,-6,.
Cc1ccc(Cl)cc1N1CCN(C(=O)C2CCN(S(=O)(=O)c3c(C)nn(C)c3C)CC2)CC1,9,-3,-7,-2,i,.,-22,3
N#Cc1cccnc1N1CCN(C(=O)c2cccc3c2C(=O)c2ccc(Cl)cc2S3(=O)=O)CC1,3,4,.,-19,.,16,23,.
CCOc1cc(C(=S)N2CCOCC2)ccc1OS(=O)(=O)c1ccccc1,7,-6,2,-9,i,19,.,-2
CCNC(=S)NCCN1CCCCC1,-2,2,4,-6,i,.,.,0
O=C(CNC(=O)N1CC(=O)Nc2ccccc21)NCCCc1ccccc1,-1,3,.,4,.,-20,.,.
O=C(Nc1ccn(-c2ccccc2)n1)c1ccc(S(=O)(=O)N2CCCCCC2)cc1,-9,-16,-11,-9,i,.,-1,-4
O=C(NCCCNC(=O)c1cc(Cl)ccc1Cl)c1cnccn1,-1,-2,10,-16,i,-4,.,3
O=c1c(=O)n(CCO)n(CCO)c(=O)n1CCO,-3,4,.,-31,.,-16,.,.
COc1cccc(CN2C(=O)[C@H]3Cc4c([nH]c5ccccc45)C(C)(C)N3C2=O)c1,7,-6,.,1,i,9,4,.
Cc1cc2nccc(-c3ccc(Cl)c([N+](=O)[O-])c3)n2n1,-8,-1,3,-12,i,2,-7,-1
CCc1ccc(N/C(N)=N/c2nc(CSc3ccccn3)cc(=O)[nH]2)cc1,-3,-20,5,-17,i,27,-10,0
CCc1nc2ccccc2c(C(=O)OCC(=O)Nc2cccc(S(=O)(=O)NC3=NCCCCC3)c2)c1C,2,-31,12,-19,i,40,17,-15

Fetched one by one from above, 3 records:
compound,MT1-MMP act inh,MT1-MMP act inh RFP,PABP polyA inh,Yeast UUG start,Rce1 inhib,HIV Env fusion,CSC inhib,eIF4H inh
O=C(Nc1ccn(-c2ccccc2)n1)c1ccc(S(=O)(=O)N2CCCCCC2)cc1,-9,-16,-11,-9,i,.,-1,-4
O=c1c(=O)n(CCO)n(CCO)c(=O)n1CCO,-3,4,.,-31,.,-16,.,.
O=C(CNC(=O)N1CC(=O)Nc2ccccc21)NCCCc1ccccc1,-1,3,.,4,.,-20,.,.

Assay outcomes as filed in PubChem BioAssay.
